CtBP-E1A inh – blocks the CtBP interaction with E1A; AlphaScreen GST-E1A/His-CtBP binding, 1536-well; hits give low values; control for the full effect not named in the record; AID 651724; activity change, % (concentration not given with the values); actives 0.49% (n = 340,000); in the data active means activity change below about -65%; inconclusive means about -30% to -65%; inactive means above about -30%; also: % is scaled to controls: 0 for no effect and ±100 for the full control effect
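GST-E1A and His-tagged CtBP (125 nM each as 5X stock) were preincubated with pin-transferred compound for 2 h at 37 °C in the dark, then glutathione donor and nickel acceptor beads were added for 1 h before AlphaScreen reading.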
TRPV1 PAM – potentiators of human vanilloid receptor 1 (TRPV1) | AID 540277 | Q8NER1 | potentiation, % at 8.33 µM | TRPV1-expressing cells, Fluo-8 calcium influx, capsaicin EC20 potentiation; host cell line not named in the record; control for the full effect not named in the record | actives 0.02% (n = 320,000); active means potentiation above 80%; inconclusive means 30% to 80%; inactive means below 30%; also: 0% is about no effect
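Fluo-8 calcium influx in TRPV1-expressing cells, kinetic read (ex 480/em 520 nm). Compound added and read 3 min for agonist activity, followed by capsaicin at EC20 final and 2 min further read for enhancement.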
TRPML1 ag – agonists of human TRPML1 channel | TRPML1-expressing cells, Ca2+ dye fluorescence, FDSS; host cell line not named in the record; reference of the full effect not given here | activation, % (test concentration not listed) | actives 0.12% (n = 410,000) | AID 624414; in the data active = activation above about 50%; inconclusive = about 30% to 50%; inactive = below about 30%; also: 0% is about no effect; the text of the record puts the active cut at 80%
Target sequence (Q9GZU1 whole entry, looked up): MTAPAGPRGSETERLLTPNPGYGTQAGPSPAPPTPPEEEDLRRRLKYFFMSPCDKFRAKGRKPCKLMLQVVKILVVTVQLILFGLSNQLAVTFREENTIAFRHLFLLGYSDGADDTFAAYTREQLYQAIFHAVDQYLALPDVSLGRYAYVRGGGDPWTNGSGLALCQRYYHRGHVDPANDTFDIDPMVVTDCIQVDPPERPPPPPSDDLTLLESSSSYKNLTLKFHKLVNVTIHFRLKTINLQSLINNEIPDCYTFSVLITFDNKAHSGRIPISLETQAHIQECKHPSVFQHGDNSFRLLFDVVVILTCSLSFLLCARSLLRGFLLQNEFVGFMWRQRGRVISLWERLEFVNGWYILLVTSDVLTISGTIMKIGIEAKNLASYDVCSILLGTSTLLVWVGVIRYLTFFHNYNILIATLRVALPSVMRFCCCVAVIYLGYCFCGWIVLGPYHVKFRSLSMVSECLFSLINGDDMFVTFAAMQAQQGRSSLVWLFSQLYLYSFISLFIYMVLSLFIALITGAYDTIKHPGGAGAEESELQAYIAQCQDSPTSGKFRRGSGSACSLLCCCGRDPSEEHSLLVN
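Cells: TRPML1-DL, 1X Tet inducer, ~16 h at 37 degrees C/5% CO2. Dye: ABD Ca8 no-wash + quencher, 45-90 min RT. Read: 10 s baseline, compound add, 110 s agonist phase; 54-4 EC80 (4uM final), 110 s antagonist phase.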
TRPML1 inh – inhibitors of human TRPML1 channel; Q9GZU1; TRPML1-inducible cells, Ca2+ dye fluorescence, FDSS; hits give low values; inhibition of EC80 agonist-evoked calcium signal; activity change, negative = inhibition, % (test concentration not listed); actives 0.02% (n = 390,000); in the data active means activity change below about -50%; inconclusive means about -30% to -50%; inactive means above about -30%;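 also: stimulus is agonist 54-4 at its EC80 concentration; % is scaled to controls: 0 for no effect and ±100 for the full control effect; compound concentration not given in the record; the text of the record puts the active cut at -80%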
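TRPML1-DL cells, Tet-induced overnight (~16 h, 37 °C) at 1,500 cells/well, were loaded with Ca8 no-wash dye plus quencher for 45-90 min at room temperature. Compounds were pinned during FDSS kinetic reading; agonist 54-4 at EC80 (4 uM final) then added.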
Six1-Eya2 inh – Six1/Eya2 interaction inhibition; actives 0.56% (n = 360,000); AlphaScreen GST-Six1/His-Eya2 binding, biochemical; hits give low values; control for the full effect not named in the record; activity change, % (no concentration beside the values); AID 651725; Q15475+O00167; in the data active = activity change below about -65%; inconclusive = about -30% to -65%; inactive = above about -30%; also: % is scaled to controls: 0 for no effect and ±100 for the full control effect; compound concentration not given in the record
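Compounds are tested against tagged Six1 and Eya2 proteins bridged by glutathione donor and nickel acceptor beads; after a one-hour incubation at 37 °C without light, AlphaScreen emission is recorded.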
D2 PAM – human D2 receptor positive allosteric modulation. P14416. DiscoveRx D2 beta-arrestin cells, luminescence, 90 min; 100% = 57 uM dopamine signal. potentiation, % (no concentration beside the values). actives 0.23% (n = 360,000). AID 624464; active = potentiation of 50% or more; inconclusive = 30% to 50%; inactive = 30% or less;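 also: compound concentration not given in the record; tested on top of an EC20 dose of dopamine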
Target sequence (P14416 whole entry, looked up): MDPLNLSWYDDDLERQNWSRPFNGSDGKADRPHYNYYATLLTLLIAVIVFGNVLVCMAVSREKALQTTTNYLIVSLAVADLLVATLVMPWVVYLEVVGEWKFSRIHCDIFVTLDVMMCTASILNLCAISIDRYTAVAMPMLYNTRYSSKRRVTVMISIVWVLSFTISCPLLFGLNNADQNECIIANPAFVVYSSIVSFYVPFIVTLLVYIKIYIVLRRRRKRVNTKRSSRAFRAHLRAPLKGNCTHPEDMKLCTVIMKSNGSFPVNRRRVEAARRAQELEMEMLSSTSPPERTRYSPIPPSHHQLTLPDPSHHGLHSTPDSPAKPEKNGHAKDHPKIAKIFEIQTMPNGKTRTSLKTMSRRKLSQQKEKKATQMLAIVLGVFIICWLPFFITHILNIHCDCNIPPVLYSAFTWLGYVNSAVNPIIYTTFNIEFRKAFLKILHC
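PathHunter D2 cells, attached overnight at 37 deg C, received compound in DMSO plus dopamine at EC20 (50 nM final) for 90 min at 37 deg C. Beta-arrestin recruitment was read as luminescence after 1 h with detection reagent at ambient temperature.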
* hit, by the source's call; ? = inconclusive; · = no result given; & = joins results of further samples.

Compound,CtBP-E1A inh,TRPV1 PAM,TRPML1 ag,TRPML1 inh,Six1-Eya2 inh,D2 PAM
CC(C)(CO)NC12CC3CC(CC(C3)C1)C2,-12,-15,0.4,54,1,-16
C#CCNC(=O)C1=C[C@H](c2csc3ccccc23)C[C@H](OCc2ccc(CO)cc2)O1,-1,19,0.5,-10,-4,-3
CCN(CC)S(=O)(=O)c1cccc(C(=O)Nc2nnc(C)s2)c1,·,13,0.2,17,6,-4
O=C(c1ccc(S(=O)(=O)N2CCOCC2)cc1)N1CCN(c2cccc(Cl)c2)CC1,11,2,-0.7,-1,-3,-3
CSCC(C)N1CCC(Oc2cccc(C(=O)NCc3ccccn3)c2)CC1 (centres undefined),-3,7,-0.2,7,3,-6
Cc1cccc(NC(=O)CC(=O)Nc2cccc(C)c2)c1,1,-3,-0.8,4,1,-3
N/N=C/C(=N\Nc1ccc(Cl)cc1)C(=O)c1ccncc1,-30,-3,1.7,1,-24,-9
CC1CCCCN1C(=O)C1COc2ccccc2O1 (centres undefined),3,-2,0.3,17,7,-8
Cc1cccn2c(=O)nc(SCC(=O)c3ccc(Cl)cc3)nc12,0,6,2.9,-1,-11,-26
CC(=Nc1ccccc1O)c1sc2ccccc2c1O,-1,-3,8.5,16,-16,-9
CN1CCN(CC(=O)Nc2nc3ccccc3s2)CC1,·,3,0.0,-16,0,-9
O=C(Nc1nc(-c2ccc(F)c(F)c2)cs1)c1ccc(OCC2CCCO2)cc1 (centres undefined),6,?,0.3,-6,13,-3
COc1ccc2c(c1)sc1nc(=O)ccn12,1,8,-0.3,7,?,-7
O=C(Nc1cc2c3c(c1)CC(=O)N3CCC2)c1ccccc1F,-7,12,0.8,-26,-18,-28
CC(NC(=O)/C(C#N)=C/c1ccc(N2CCOCC2)cc1)c1ccccc1 (centres undefined),10,-40,0.9,15,40,-6
COc1ccc(OC)c(NC(=S)N2CCN(Cc3ccccc3)CC2)c1,-1,0,1.8,-19,-12,-6
O=Cc1ccc(N2CCCC2)o1,1,-4,-0.5,4,19,-8
O=C(NC1CCCN(Cc2ccccc2F)C1)c1cccs1 (centres undefined),·,4,1.0,10,3,-15
CCN(CC)N=Nc1ccc(S(N)(=O)=O)cc1,-2,11,-0.8,14,1,-5
Cc1nc2ccc3nc(NC(=O)c4ccco4)sc3c2s1,79,·,-0.3,13,-15,-8
OC(CNc1nc2ccccc2s1)c1ccccc1 (centres undefined),2,-2,0.7,4,-6,-13
CCc1n[nH]c(=S)n1/N=C/c1ccc(NC(C)=O)cc1,-4,-5,-1.2,-4,-13,-40
Cc1cc(C)c2sc(C)[n+](CCCS(=O)(=O)[O-])c2c1,-3,-1,-0.7,8,-4,-19
O=C(COC(=O)c1cccc2ccccc12)Nc1cccnc1Cl,13,1,0.4,-4,4,6
O=C(NCC(=O)N1CCN(C/C=C/c2ccccc2)CC1)c1ccc(Br)cc1,-2,·,2.2,2,-6,0

Rewritten with values under each structure: entries from further up.
Fields – CtBP-E1A inh | TRPV1 PAM | TRPML1 ag | TRPML1 inh | Six1-Eya2 inh | D2 PAM
- O=C(COC(=O)c1cccc2ccccc12)Nc1cccnc1Cl
  13 | 1 | 0.4 | -4 | 4 | 6
- O=C(NCC(=O)N1CCN(C/C=C/c2ccccc2)CC1)c1ccc(Br)cc1
  -2 | · | 2.2 | 2 | -6 | 0

(list continues)
Compound,CtBP-E1A inh,TRPV1 PAM,TRPML1 ag,TRPML1 inh,Six1-Eya2 inh,D2 PAM
O=C(CS(=O)(=O)c1ccc2ccccc2c1)N1CCCCCC1,4,-22,0.3,-9,0,-13
O=C(NCc1ccc2c(c1)OCO2)c1cc(-n2cnnc2)ccc1Cl,7,·,0.5,-7,-1,-1
CCC(C)NS(=O)(=O)c1ccc(NC(=O)C2CCCO2)cc1 (centres undefined),-20,-1,-0.6,0,1,-3
COc1cc2nc(/C=C/c3ccc(N(C)C)cc3)sc2cc1SC,-19,-3,120*,-12,?,-8
Clc1cccc(Cl)c1/C=C/c1ccn[nH]1,-25,9,3.1,-20,-13,-9
CCOC(=O)C1CCN(c2cc3c(cc2NC(=O)c2ccccc2Cl)n(C)c(=O)n3C)CC1,·,-3,2.4&0.3,40&26,-8,0
CC(C)C(NC(=O)c1cccnc1)C(=O)O (centres undefined),-14,-5,0.6,3,17,-25
COc1ccc(OC)c(NC(=O)COC(=O)CCCN2C(=O)c3ccccc3C2=O)c1,2,18,0.2,?,2,-7
CC1(C(=O)NS(=O)(=O)C2CC2)CCCN(C(=O)c2ccc(F)cc2Cl)C1 (centres undefined),-2,·,0.2,37,6,-10
Cc1cccc(C)c1NC(=O)C1=C(O)c2ccccc2N(C)S1(=O)=O,-1,-6,0.2,21,-4,-2
CSc1nnc(-c2ccccc2)o1,-1,-3,0.3,-5,2,-3
Cc1ccccc1NC(=O)Cn1nc(C)c2ccccc2c1=O,-1,3,-0.6,19,3,-2
Cc1ccnc(N2C(=O)c3ccccc3C2Nc2ccc3c(c2)OCCO3)c1 (centres undefined),-14,·,1.6,26,-19,-4
COc1ccc(Oc2cc(C)c3ccccc3n2)cc1,20,4,0.8,14,27,?
CC(C)=CCC[C@H](C)C[C@@H]1CC2=C(C(=O)OC(C)(C)O2)[C@H](c2ccc(F)cc2)O1,18,·,2.3,63,13,-3
CCCC(c1nnnn1Cc1ccc(OC)cc1)N1CCN(c2ccccc2OC)CC1 (centres undefined),-12,24,0.6,-1,4,-15
O=C1CC(N2CCC(c3nc4ccccc4o3)CC2)C(=O)N1Cc1cccs1 (centres undefined),-2,0,-1.1,7,-9,-14
O=C(Nc1nc2c(s1)CCCC2)c1nn(Cc2ccccc2)c(=O)c2ccccc12,3,12,-0.3,12,-4,-3
CC(=O)c1ccc(NC(=S)N2CCCCCC2)cc1,-4,-6,0.1,14,-1,-5
COc1ccc(CCNS(=O)(=O)c2ccc3c(c2)CC(C)N3C(C)=O)cc1OC (centres undefined),-1,4,0.6,-7,-1,?
O=C1OC(Cc2ccccc2)C(c2ccccc2)C1=O (centres undefined),3,·,0.6,15,7,-9
Cc1ccc(N(C(=O)C(F)(F)F)C(C(=O)NC2CCCCC2)c2ccncc2)cc1C (centres undefined),·,-10,0.0,19,6,-5
Cc1ccccc1C(=O)NC(C)C(c1cccs1)N1CCOCC1 (centres undefined),-2,-6,0.5,38,-1,4
O=C(Nc1ccccc1N1CCOCC1)c1ccc2nc[nH]c2c1,0,3,0.8,-4,1,4
O=C(CN1CCOCC1)NN=C1CCCCCCCCCCC1,9,-3,-0.3,-1,34,-4

Ordered by molar mass (low to high): some entries from above
Compound,CtBP-E1A inh,TRPV1 PAM,TRPML1 ag,TRPML1 inh,Six1-Eya2 inh,D2 PAM
CSc1nnc(-c2ccccc2)o1,-1,-3,0.3,-5,2,-3
CC(C)C(NC(=O)c1cccnc1)C(=O)O (centres undefined),-14,-5,0.6,3,17,-25
Clc1cccc(Cl)c1/C=C/c1ccn[nH]1,-25,9,3.1,-20,-13,-9
COc1ccc(Oc2cc(C)c3ccccc3n2)cc1,20,4,0.8,14,27,?
O=C1OC(Cc2ccccc2)C(c2ccccc2)C1=O (centres undefined),3,·,0.6,15,7,-9
CC(=O)c1ccc(NC(=S)N2CCCCCC2)cc1,-4,-6,0.1,14,-1,-5
Cc1ccccc1NC(=O)Cn1nc(C)c2ccccc2c1=O,-1,3,-0.6,19,3,-2
O=C(CN1CCOCC1)NN=C1CCCCCCCCCCC1,9,-3,-0.3,-1,34,-4
CCC(C)NS(=O)(=O)c1ccc(NC(=O)C2CCCO2)cc1 (centres undefined),-20,-1,-0.6,0,1,-3
O=C(CS(=O)(=O)c1ccc2ccccc2c1)N1CCCCCC1,4,-22,0.3,-9,0,-13
Cc1ccccc1C(=O)NC(C)C(c1cccs1)N1CCOCC1 (centres undefined),-2,-6,0.5,38,-1,4
COc1cc2nc(/C=C/c3ccc(N(C)C)cc3)sc2cc1SC,-19,-3,120*,-12,?,-8
Cc1cccc(C)c1NC(=O)C1=C(O)c2ccccc2N(C)S1(=O)=O,-1,-6,0.2,21,-4,-2
CC1(C(=O)NS(=O)(=O)C2CC2)CCCN(C(=O)c2ccc(F)cc2Cl)C1 (centres undefined),-2,·,0.2,37,6,-10
COc1ccc(CCNS(=O)(=O)c2ccc3c(c2)CC(C)N3C(C)=O)cc1OC (centres undefined),-1,4,0.6,-7,-1,?
COc1ccc(OC)c(NC(=O)COC(=O)CCCN2C(=O)c3ccccc3C2=O)c1,2,18,0.2,?,2,-7
Cc1ccc(N(C(=O)C(F)(F)F)C(C(=O)NC2CCCCC2)c2ccncc2)cc1C (centres undefined),·,-10,0.0,19,6,-5
CCCC(c1nnnn1Cc1ccc(OC)cc1)N1CCN(c2ccccc2OC)CC1 (centres undefined),-12,24,0.6,-1,4,-15
CCOC(=O)C1CCN(c2cc3c(cc2NC(=O)c2ccccc2Cl)n(C)c(=O)n3C)CC1,·,-3,2.4&0.3,40&26,-8,0

The list goes on:
Compound,CtBP-E1A inh,TRPV1 PAM,TRPML1 ag,TRPML1 inh,Six1-Eya2 inh,D2 PAM
CCCCNC(=O)C1(C)CCN1C(=O)c1cccc(OC(C)=O)c1C (centres undefined),3,·,-0.2,·,7,3
CN(CC(=O)NNC(=O)CNC(=O)c1cccs1)S(=O)(=O)c1ccc(Cl)cc1,9,13,0.6,-13,0,-28
Cc1cccc(CCN(CC(=O)NCc2ccc(F)cc2)C(=O)c2csnn2)c1,-17,-14,0.6,13,8,-7
COc1cc(C2CC(=O)C=C(O)C2)cc(OC)c1OC (centres undefined),?,-21,0.5,-9,-27,-3
Cc1cc(N(CN2CCCC2=O)C(=O)c2ccc(OC(C)C)cc2)no1,-7,-1,1.0,0,1,-7
O=C(OCCN(CCOC(=O)c1ccncc1)S(=O)(=O)c1cccs1)c1ccncc1,3,6,-0.8,15,1,-6
CCC(C(=O)NC1CCCC1)N(C(=O)c1snc(C(N)=O)c1N)c1ccc(C)cc1C (centres undefined),6,2,0.1,-3,-1,-3
O=C(c1cc(-c2cccnc2)nc2ccc(Cl)cc12)N1CCN(S(=O)(=O)c2cccs2)CC1,-6,-9,1.2,-11,0,9
CCOC(=O)C1C(=O)NC(c2ccccc2)=NC1c1ccc(O)c(OC)c1 (centres undefined),7,3,-0.1,0,0,2
CCSc1ccc(-c2cc(NC=O)c3ncc(-c4cccc(C(=O)NCCN(C)C)c4)n3c2)cc1,-29,·,0.2,·,2,-3
Cn1c(CCCOc2ccc(Cl)cc2Cl)nnc1SCC(=O)Nc1ccc(F)c(Cl)c1,-6,3,2.1,-7,3,14
CC12CC3CC(C)(C1)CC(NCc1ccncc1)(C3)C2,0,-7,0.3,11,0,-3

Assay outcomes from PubChem.
